# Screening results from PubChem.
# VACV mCherry inh = qHTS for Stage-Specific Inhibitors of Vaccinia Orthopoxvirus: mCherry Reporter Primary qHTS | 310,000 compounds, 0.63% hits | Potency, µM (doses to about 36.5 µM), for the others: at the highest dose activity change, negative = inhibition, most hits filed as inhibitors | AID 720579, 2013 | Vaccinia virus mCherry reporter infection, fluorescence; about a quarter of the inactives have no number; active = well fitted inhibition curve with a large enough effect; inconclusive = small, poorly fitted or top-dose-only effect; inactive = no such curve, though single readings can be large or run the other way; tested in A549 cells; further: nearly all actives have a fitted effect of over 35% in size; inactives centre near -10
# VACV Venus inh = qHTS for Stage-Specific Inhibitors of Vaccinia Orthopoxvirus: Venus Reporter Primary qHTS; Vaccinia virus Venus reporter expression, fluorescence; Potency, µM (doses to about 36.5 µM), for inactives: at the highest dose activity change, negative = inhibition, actives largely listed as inhibitors; 330,000 compounds, 0.46% hits; AID 720580, 2013; active means well fitted inhibition curve with a large enough effect; inconclusive means small, poorly fitted or top-dose-only effect; inactive means no such curve, though single readings can be large or run the other way; tested in A549 cells; further: nearly all actives have a fitted effect of over 30% in size; inactives centre near -10
# Numbers without * were called inactive; i = inactive; ? = inconclusive; · = no result given; & = joins results of further samples; [ ] = remark or other dose. On the % scale 0 is the no-effect control and ±100 the full control effect; potency means the concentration at half of the fitted maximal effect.
SMILES	VACV mCherry inh	VACV Venus inh
COc1cc2cc(C[C@H](C)O)oc(=O)c2cc1OC	-2.5%	-4.0%
COc1ccc(N(CC(=O)NCc2ccco2)C(=O)CCC(=O)Nc2nccs2)c(OC)c1	-12.5%	-1.8%
COc1ccccc1C(=O)NCc1nnc(SC(C)C(=O)Nc2nccs2)n1C (stereo not given)	-20.3%	-7.8%
Cc1cccc(NC(=O)Nc2ccc(F)cc2)n1	-10.0%&-11.7%	-11.9%&-9.2%
O=C(NCCCN1CCCC1=O)c1cccc(S(=O)(=O)Nc2ccc(F)cc2)c1	-12.5%	-17.7%
Cn1cc(C(=O)Cc2ccccc2)c2ccccc21	-15.6%	-7.9%
O=C(CSCc1ccccc1)Nc1cccc(F)c1	-19.7%	-8.0%
[Cl][Pt+2][Cl].[NH-]C1CCCCC1[NH-] (stereo not given)	-20.0%	-16.0%
CNc1ccc2c3c(cccc13)C(=O)N(C)C2=O	-21.1%	339.5%[activator]
Cc1c(C)n(-c2ccc(Cl)cc2)c2ncnc(N)c12	?	-20.1%
COc1ccc(NC(=O)CCSc2nnc(C)s2)cc1	-11.8%	-7.8%
COc1ccc2[nH]c(=O)c(CN(CCCN(C)C)C(=O)Nc3ccc(F)cc3)cc2c1	-2.3%	-8.7%
Clc1cccc(-c2nc3ccc(Br)cn3c2Cc2ccccc2)c1	11.8%	1.6%
COC(=O)c1c(NC(=O)c2ccccc2)sc2c1CC(C)(C)NC2(C)C	17.1%	0.0%
Cc1ccc(C)c(S(=O)(=O)N2CCN(C(=O)Cc3ccc(S(=O)(=O)N4CCOCC4)s3)CC2)c1	-19.8%	-9.6%
CCc1ccc(S(=O)(=O)N/N=C\c2cn(CC(N)=O)c3ccccc23)cc1	-18.6%	-10.0%
Cc1ccc(C(=O)COC(=O)c2nc(Cl)ccc2Cl)cc1	-16.4%	8.9%
CCc1nn(CC(=O)Nc2ccc(Br)c(C)c2)c(=N)s1	-7.9%	-3.6%
Cc1ccc(Nc2cc(C)c(C#N)c3nc4ccccc4n23)c(C)c1	-0.8%	3.2%
O=C(Cn1c(=O)nc(-c2ccccc2)c2ccccc21)NCc1ccccc1Cl	i	-16.6%
CCCCCCCCCCCCN1[C@@H](CC(=O)O)c2cc(F)ccc2S1(=O)=O	i	-18.7%
COc1cc(C)c(NC(=O)COc2ccc3c(c2)CCC3)cc1OC	i	-13.6%
Cc1nnc(SCc2ccc(CC(=O)O)cc2)o1	-12.9%	-2.7%
CCOc1ccc(NC(=O)CN(C)C(=O)c2cc(-c3cccs3)nn2-c2ccccc2)cc1OCC	-14.6%	-12.0%
Cc1cc(=O)oc2c(C)c(OCC(=O)N3CCN(Cc4ccccc4)CC3)ccc12	i	-21.2%
Cc1ccccc1OCCn1c(=O)sc2ccccc21	·	-4.6%
Nc1[nH]c(C(=O)c2ccccc2)c(-c2ccc(Cl)cc2Cl)c1C(=O)c1ccc(Cl)c(Cl)c1	-29.5%	-27.2%
COc1ccc(C2=NN(C(N)=S)C(c3ccccc3)C2)cc1 (stereo not given)	?	-5.6%
Cc1ccccc1NS(=O)(=O)c1ccc(C(=O)N2CC(C)OC(C)C2)cc1 (stereo not given)	i	-22.1%
CCCCCc1ccc(-c2nnc(N)s2)cc1	-24.8%	-4.2%
CCOC(=O)c1ccc(NC(=O)C(=O)NCc2ccco2)cc1	-4.5%	-14.5%&-1.0%
O=C1c2ccccc2C(c2nnnn2-c2ccc3c(c2)OCCO3)N1CCc1c[nH]c2ccccc12 (stereo not given)	-7.5%	4.9%
C/C(N)=C(/C#N)C(=O)COC(=O)c1cc(-c2cccc3ccccc23)nc2ccccc12	0.9%	-0.7%
O=C1CCN(CCc2ccccc2)CCN1[C@H](CO)Cc1ccccc1	i	-8.5%&-13.0%
O=C(O)CC(C(=O)Nc1ccc(Cl)c(Cl)c1)C1CCCO1 (stereo not given)	-14.9%	-9.7%
COc1ccc(S(=O)(=O)N(CCc2ccccc2)CC(=O)Nc2cccc(OC)c2)cc1	-18.1%	-11.4%
CCOC(=O)C1CCN(C(=O)c2ccc(OCC(=O)N3CCOCC3)c(OC)c2)CC1	-20.9%	-3.4%
O=S(=O)(c1ccc(F)cc1)N(CC(O)Cn1c2ccccc2c2ccccc21)c1ccccc1 (stereo not given)	-19.0%	-9.8%
CN(CC(=O)NCCc1ccc(S(N)(=O)=O)cc1)CC(=O)Nc1ccccc1C(F)(F)F	-16.7%	-13.8%
O=C(NCc1cc(C(F)(F)F)ccc1Cl)c1cccc2c1C(=O)c1ccc(N3CCC(N4CCCCC4)CC3)cc1S2(=O)=O	?	?
O=C(NCc1ccccc1Cl)c1ccc[nH]1	-11.3%	-3.6%
CCOc1ccccc1/C=N/NC(=O)Cc1csc(Nc2cccc(C(F)(F)F)c2)n1	·	-27.0%
CC(C)C[C@H]1CNC(=S)N1C[C@H]1CCCN1C[C@H](CC(C)C)N1C[C@H](CC(C)C)N(CCc2ccccc2)C1=S	7.1%	-18.7%
CCn1c(O)c(N=NC(=O)C(O)c2ccccc2)c2ccccc21 (stereo not given)	?	-27.7%
Cc1cc(N/N=C/c2ccc(O)cc2)nc(NS(=O)(=O)c2ccccc2)n1	-6.4%	-1.0%
C[C@H]1CN([C@@H](C)CO)C(=O)CCCn2cc(nn2)CO[C@@H]1CN(C)C(=O)c1ccc(N2CCN(C)CC2)cc1	i	-0.7%
CCOc1ccc(Cl)cc1S(=O)(=O)N1CCC(C(=O)NCc2ccco2)CC1	-10.8%	-7.1%
O=C(O)C1=CCC=CC1C(=O)O (stereo not given)	i	-2.0%
Cc1ccc(OCCCn2c(CCNC(=O)C3CCCCC3)nc3ccccc32)c(C)c1	-0.1%	-3.4%
CC(C)C(O)(C#CCN1CCCCCC1)c1ccccc1 (stereo not given)	-11.1%	-9.5%

# Carrying on.
SMILES	VACV mCherry inh	VACV Venus inh
Cc1ccc(C)c(Nc2nnc(-n3nc(C)cc3C)c3ccccc23)c1	-12.9%	-11.6%
CN(C)CCCNC(=S)/N=c1\sccn1Cc1ccccc1Cl	-29.9%	-21.3%
Cc1ccccc1Cn1ccc(NC(=O)c2cnn3cccnc23)n1	-2.5%	-19.2%
CN1CCN(/N=C/c2c(O)n(CCC3=CCCCC3)c(=S)[nH]c2=O)CC1	-12.2%	-11.4%
O=C(CCC1N=C2c3ccccc3N=C(SCc3cccc(Cl)c3)N2C1=O)NCc1ccco1 (stereo not given)	-25.0%	-22.3%
O=S1(=O)C=CC(Sc2nc3ccccc3[nH]2)C1 (stereo not given)	·	?
CC1Cc2ccccc2N1C(=O)c1cccnc1 (stereo not given)	-10.9%	-6.4%
CCCC(=O)Nc1nn(CC)c2nc3ccc(C)cc3cc12	-15.4%	-24.4%
Cc1ccc(S(=O)(=O)NCCC(=O)NCc2ccccn2)cc1	i	-10.5%
Cc1c(NC(=O)C(C)OC(=O)Cc2ccc(F)cc2)c(=O)n(-c2ccccc2)n1C (stereo not given)	i	-2.1%
Fc1ccccc1N1CCN(Cc2cccnc2)CC1	i	10.2%
O=C1C(c2ccc(F)cc2)N(Cc2ccc3c(c2)OCO3)C(=O)CN1C1CCCCC1 (stereo not given)	i	-14.0%
COc1cccc(C(c2sc3nc(-c4ccco4)nn3c2O)N2CCN(c3ccccc3F)CC2)c1 (stereo not given)	i	-13.7%
CCC(C)c1c(O)nc(SCC(=O)N2CCCCCC2)[nH]c1=O (stereo not given)	-3.1%	-10.9%
O=C(COc1ccccc1/C=C1\SC(=O)NC1=O)Nc1ccc(F)cc1	?	-7.6%
Cn1c(CO)c(-c2ccccc2)c2cc([N+](=O)[O-])ccc21	?	?
C=C(C)CSc1nnc(-c2ccccc2)n1N	i	-15.3%
OB(O)c1cc2ccccc2s1	-6.8%	-20.8%
O=C1Cc2ccccc2C(c2ccccc2)N1 (stereo not given)	i	-4.1%
CC(C)(C)NCC(O)COc1cccc2c1CCC(=O)N2 (stereo not given)	-13.1%	-12.1%
NC(=NCc1ccccc1)NN=Cc1ccnc2ccccc12	0.5%	-13.1%
Cc1cc(C)c(NC(=O)COC(=O)C2CCCO2)c(C)c1 (stereo not given)	i	0.7%
COc1ccccc1-c1noc2c1C(=O)NCC2	i	-0.9%
Cc1ccc(S(=O)(=O)N2[C@@H](c3ccc(Cl)cc3)C(C(=O)O)=C[C@H]2C(C)(C)C)cc1	-0.3%	-23.8%
COc1cccc(/C=C/c2nc(C#N)c(N(C)Cc3ccccc3)o2)c1	-17.9%	1.9%
C=CCNc1nc(-c2cc3ccccc3o2)cs1	-16.4%	-23.8%
COc1cccc(-c2cc(C(=O)N3CC4(C)CC3CC(C)(C)C4)no2)c1 (stereo not given)	-25.2%	-21.6%
Cc1cc2cc3c(=O)[nH]c(=O)cc-3n(CC(O)C(O)C(O)CO)c2cc1C (stereo not given)	i	118.2%[activator]
COc1ccc(N/C=C/C(=O)c2sc(-c3ccccc3)nc2C)cc1	?	?
Cc1cc(=O)[nH]c(SC(C(=O)O)c2ccccc2)n1 (stereo not given)	-8.3%	-5.0%
Cn1c(O)c(N=NC(=O)CNC(=O)c2cccnc2)c2ccccc21	?	-9.8%
CCn1c(NCc2ccccc2NS(=O)(=O)c2ccc(C)cc2)nc2ccccc21	?	?
CCOc1ccc(C(=O)NCC(=O)NNC(=O)CN(C)S(=O)(=O)c2ccc(Cl)cc2)cc1OCC	-16.2%	-5.6%
CCOc1ccc(C(=O)Nc2ccc3c(c2)OCO3)cc1OCC	-3.4%	-1.0%
Nc1cc(=O)[nH]c(SCc2nnnn2-c2ccc(Cl)cc2)n1	i	-20.6%
Cc1sc2nc(SCC(=O)Nc3cccc(S(N)(=O)=O)c3)[nH]c(=O)c2c1C	-10.8%	0.4%
COc1ccc(C2=NN(C(=O)CSc3ncccn3)C(c3cccc(OC)c3OC)C2)cc1 (stereo not given)	i	-7.6%
Nc1nc(N)c2cc(CNc3ccc(Cl)c(Cl)c3)ccc2n1	?	5.62µM*
CCOC(=O)c1sc(SCC(=O)Nc2ccc(N(C)C)cc2)nc1N	-11.4%	-11.8%
COc1ccc(SC[C@H](CC(C)C)N2CCN(C)CCC2=O)cc1	i	-8.1%
Cc1cc(C)nc(NS(=O)(=O)c2ccc(NC(=O)c3ccc4c(c3)OCCO4)cc2)n1	-10.3%	-22.4%
O=C(CCCCCn1c(=S)[nH]c2ccc(N3CCOCC3)cc2c1=O)NC1CCN(Cc2ccccc2)CC1	-12.4%	-21.2%
Cc1ccc(/C=C/C(=O)Nc2ccc3nc(N4CCC(C)CC4)cc(C)c3c2)cc1	-14.6%	-9.1%
COc1cccc(N2CC(NC(=O)Cc3cccs3)CC2=O)c1 (stereo not given)	-7.8%[7.34 µM]	-8.2%[7.34 µM]
CC(C)(C)c1cc(C(=O)N/N=C/c2ccc(O)cc2)n(-c2ccccc2)n1	?	-28.0%
COc1ccc2cc3cc(C(=O)Nc4ccc5c(c4)OCO5)oc3nc2c1	-24.8%	-17.1%
Cc1ccc(C(C(=O)NC2CCCCC2)N(Cc2cccnc2)C(=O)c2csnn2)cc1 (stereo not given)	-1.7%	-2.9%
O=C(CSc1nnnn1-c1ccccc1)Nc1ccc(Cl)cn1	·	?
COc1ccc(NC(=O)c2ccccc2-c2ccc(C(F)(F)F)cc2)cc1S(=O)(=O)N1CCOCC1	?	?
COc1cc2c(cc1OC)CN(c1ccc3ccccc3n1)CC2	?	?

# Next records follow:
SMILES	VACV mCherry inh	VACV Venus inh
CCOC(=O)[C@]12CCC=C1N(Cc1ccccc1)C(=O)[C@H](CC(=O)NCCCN1CCCC1=O)C2	-9.3%	-7.1%
COc1ccc(/C=N/NC(=O)c2cccnc2)cc1O	i	-16.9%
CC(=O)Nc1ccc(NC(=O)C(C)OC(=O)CCC2CCCC2)cc1 (stereo not given)	-9.5%	0.4%
O=C(c1ccco1)C(O)c1ccco1 (stereo not given)	i	-6.3%
C[C@@H]1CC=C[C@H]2[C@H]1C(=O)N(Cc1ccccc1)[C@H]2c1ccc(-c2cc3ccccc3s2)cc1F	-9.0%	-10.1%
CCOC(=O)c1c(C)nn(-c2ncccc2NC(=O)NC(C)C)c1C	-17.7%	-4.0%

# 2 records picked at random from the list so far, as already listed:
SMILES	VACV mCherry inh	VACV Venus inh
CC(=O)Nc1ccc(NC(=O)C(C)OC(=O)CCC2CCCC2)cc1 (stereo not given)	-9.5%	0.4%
COc1ccc(/C=N/NC(=O)c2cccnc2)cc1O	i	-16.9%

# In the list so far, 6 contain a COOH group:
SMILES	VACV mCherry inh	VACV Venus inh
CCCCCCCCCCCCN1[C@@H](CC(=O)O)c2cc(F)ccc2S1(=O)=O	i	-18.7%
Cc1nnc(SCc2ccc(CC(=O)O)cc2)o1	-12.9%	-2.7%
O=C(O)CC(C(=O)Nc1ccc(Cl)c(Cl)c1)C1CCCO1 (stereo not given)	-14.9%	-9.7%
O=C(O)C1=CCC=CC1C(=O)O (stereo not given)	i	-2.0%
Cc1ccc(S(=O)(=O)N2[C@@H](c3ccc(Cl)cc3)C(C(=O)O)=C[C@H]2C(C)(C)C)cc1	-0.3%	-23.8%
Cc1cc(=O)[nH]c(SC(C(=O)O)c2ccccc2)n1 (stereo not given)	-8.3%	-5.0%
